# ClpP mod = qHTS Assay for Activators of ClpP; ATP-dependent Clp protease proteolytic subunit (Bacillus subtilis (strain 168)), P80244; purified B. subtilis ClpP, FRET peptide cleavage, 20 min; Potency, µM (highest dose often 57.5 µM), inactives show at the top dose activity change, negative = active; 340,000 tested, 1.9% active; AID 651965, 2013; active = well fitted falling curve with a large enough effect; inconclusive = small, poorly fitted or top-dose-only effect; inactive = no such curve, though single readings can be large or run the other way; also: potency is read from the fitted curve at half-maximal effect; the source files actives as falling curves though it sought activators and does not explain the sign; nearly all actives have a fitted effect of over 65% in size; many hits overshoot -100%
# Target sequence (P80244 whole entry, looked up): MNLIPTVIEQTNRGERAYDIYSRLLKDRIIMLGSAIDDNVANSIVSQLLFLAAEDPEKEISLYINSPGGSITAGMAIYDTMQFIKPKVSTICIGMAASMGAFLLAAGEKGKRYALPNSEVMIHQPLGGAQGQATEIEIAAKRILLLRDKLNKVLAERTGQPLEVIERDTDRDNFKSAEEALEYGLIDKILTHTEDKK
#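 Purified B. subtilis ClpP, 10 microg/mL final in Tris/HCl pH8 with KCl, BSA, glycerol and Tween-20, cleaved an Abz/nitrotyrosine-quenched decapeptide. Fluorescence (ex 320, em 430) was read at 0 and 20 min at room temperature. Delta was normalized to 5.8 microM ADEP and DMSO/no-enzyme controls.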
# TRPV1 PAM = enhances activation of the human vanilloid receptor TRPV1. TRPV1-expressing cells, Fluo-8 calcium influx, capsaicin EC20 potentiation; host cell line not named in the record; control for the full effect not named in the record. potentiation, % at 8.33 µM. AID 540277. 320,000 tested, 0.02% active. Q8NER1; active means potentiation above 80%; inconclusive means 30% to 80%; inactive means below 30%; also: 0% is about no effect
# Target sequence (Q8NER1 whole entry, looked up): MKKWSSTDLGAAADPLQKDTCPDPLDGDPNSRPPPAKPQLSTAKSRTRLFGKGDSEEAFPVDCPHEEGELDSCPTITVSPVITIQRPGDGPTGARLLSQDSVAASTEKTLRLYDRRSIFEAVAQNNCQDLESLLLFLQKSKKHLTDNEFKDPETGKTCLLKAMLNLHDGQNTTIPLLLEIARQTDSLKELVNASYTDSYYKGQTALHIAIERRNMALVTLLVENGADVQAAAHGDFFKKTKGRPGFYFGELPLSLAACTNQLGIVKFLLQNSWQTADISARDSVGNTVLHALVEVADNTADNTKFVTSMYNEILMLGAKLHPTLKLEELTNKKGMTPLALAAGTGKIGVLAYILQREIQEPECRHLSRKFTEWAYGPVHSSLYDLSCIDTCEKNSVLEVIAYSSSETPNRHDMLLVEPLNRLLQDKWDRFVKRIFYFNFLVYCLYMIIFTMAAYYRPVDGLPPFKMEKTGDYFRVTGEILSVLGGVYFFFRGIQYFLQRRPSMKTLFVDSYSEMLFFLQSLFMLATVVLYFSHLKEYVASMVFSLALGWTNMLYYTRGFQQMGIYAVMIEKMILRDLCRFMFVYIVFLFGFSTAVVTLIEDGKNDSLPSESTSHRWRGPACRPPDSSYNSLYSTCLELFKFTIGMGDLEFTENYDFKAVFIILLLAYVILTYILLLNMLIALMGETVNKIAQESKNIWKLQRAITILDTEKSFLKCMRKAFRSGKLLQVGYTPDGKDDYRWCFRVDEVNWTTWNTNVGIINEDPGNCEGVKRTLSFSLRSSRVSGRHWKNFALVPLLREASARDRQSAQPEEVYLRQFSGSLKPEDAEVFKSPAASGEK
#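 TRPV1-expressing cells were cultured overnight at 35.5C and loaded with Fluo-8 calcium dye for 40 to 90 min at room temperature. After a 10 s baseline, compound was added and calcium influx was read kinetically for 3 min (ex 480/em 520 nm).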
# Menin-MLL FL inh = menin-MLL binding inhibition, fluorescein peptide. Fluorescence polarization, fluorescein-MLL peptide displacement from menin. FP activity change, % at 61.4 µM. 290,000 tested, under 10 active. AID 1766; inconclusive = falling polarisation curve, or a change in total fluorescence; inactive = total fluorescence flat and polarisation flat or rising; no compound was filed as active; the % refers to the polarisation; negative = inhibition;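 also: % of control where 0% means no effect; inhibitors lower the polarisation; unlabelled MLL peptide was the positive control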
# gsp ag = gsp mutant agonism; 340,000 tested, 0.13% active; AID 624287; Potency, µM (top dose mostly 76.9 µM), for inactives: at the highest dose activation (cAMP increase), most hits filed as activators; gsp mutant cells, cAMP HTRF, 30 min; control for the full effect not named in the record; active = well fitted activation curve with a large enough effect; inconclusive = small, poorly fitted or top-dose-only effect, or another doubt; inactive = no such curve, though single readings can be large or run the other way; cell line not stated here;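 also: phosphodiesterase inhibitor Ro 20-1724 added with compounds to block cAMP breakdown; potency is read from the fitted curve at half-maximal effect; nearly all actives have a fitted effect of over 60% in size; about a fifth of the inactives were tested at one dose only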
#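 Cells in DMEM/10% FBS with G418 were pretreated with compounds in DMSO plus […] (300 uM stock) for 30 min at 37C. cAMP was measured by HTRF (cAMP-d2 plus anti-cAMP antibody-K) after 30 min at room temperature.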
# Sfp inh = inhibitors of Bacillus subtilis Sfp phosphopantetheinyl transferase; Biochemical Sfp PPTase activity, qHTS; Potency, µM, for the others: max response, negative = inhibition, hits mostly inhibitors; 310,000 tested, 3.5% active; active = well fitted inhibition curve with a large enough effect; inconclusive = small, poorly fitted or top-dose-only effect, or another doubt; inactive = no such curve, though single readings can be large or run the other way;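 also: the enzyme is Sfp with the accession as filed and its product quenches rhodamine fluorescence; potency is read from the fitted curve at half-maximal effect; 0% = enzyme reaction without inhibitor and -100% = no enzyme wells; top concentration of the series not given in the record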
#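 With Hepes-Na pH 7.6 buffer containing 10 mM MgCl2, Sfp (15 nM) modified BHQ-2-YbbR (12.5 uM) using rhodamine-CoA (5 uM). Two reads 30 minutes apart at 525/598 nm yielded each well's rate.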
# CtBP-E1A blk = CtBP/E1A binding inhibition. 340,000 tested, 0.49% active. AlphaScreen GST-E1A/His-CtBP binding, 1536-well; active compounds read low; control for the full effect not named in the record. activity change, % (no concentration beside the values); in the data active means activity change below about -65%; inconclusive means about -30% to -65%; inactive means above about -30%; also: % is scaled to controls: 0 for no effect and ±100 for the full control effect
#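 GST-E1A and His-tagged CtBP (125 nM each as 5X stock) were preincubated with pin-transferred compound for 2 h at 37 °C in the dark, then glutathione donor and nickel acceptor beads were added for 1 h before AlphaScreen reading.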
# gsp antag = gsp mutant antagonism | gsp-mutant cells, cAMP HTRF, 30 min; control for the full effect not named in the record | Potency, µM (series often up to 76.9 µM), without a hit: at the highest dose activity change, negative = inhibition, usual class: inhibitors | 340,000 tested, 0.4% active; active = falling curve of any shape with a large fitted effect; inconclusive = falling curve, mostly with a smaller effect; inactive = flat or rising curve; cell line not stated here;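 also: intracellular cAMP measured with PDE inhibitor Ro 20-1724 present during compound exposure; potency is read from the fitted curve at half-maximal effect; % is scaled to controls: 0 for no effect and ±100 for the full control effect; nearly all actives have a fitted effect of over 65% in size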
#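 Cells, 2000/well, grown 16–24 h in DMEM 10% FBS with 0.5 mg/ml G418, then compounds plus […] (300 uM addition stock), 30 min at 37C. cAMP read by HTRF (cAMP-d2 and anti-cAMP antibody-K in lysis buffer) after 30 min RT.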
# The depositor's hits bear a star; u = inconclusive; x = no result given; & = joins results of further samples; [ ] = remark or other dose.
SMILES	ClpP mod	TRPV1 PAM	Menin-MLL FL inh	gsp ag	Sfp inh	CtBP-E1A blk	gsp antag
O=C(O)c1ccc(N2CC3CC(C2)c2cccc(=O)n2C3)c(NC(=S)Nc2ccc(Br)cc2)c1 (stereo not given)	x	13	0.9	2%	56µM*	13	1%
O=C(c1cc2ccccc2o1)N1CCN=C1SCc1cccc(F)c1	-8.4%	16	-1.3	u	-7%	1	6%
CN(CC1COc2ccccc2O1)C(=O)c1ccc(N(C)C)cc1 (stereo not given)	-0.6%	-3	0.1	29%	13%	-11	-4%
Fc1cccc2sc(N3CCCCC3)nc12	-4.6%	-7	1.7	19%	8%	-12	8%
COc1cc2c(cc1OC)C(=O)C(Br)CC2 (stereo not given)	-17%	x	x	u	x	2	x
COc1ccc(/C=C/C2=NNC(=O)CC2)cc1	x	4	-0.7	0%[15.4 µM]	-3%	3	-6%
CCOC(=O)CC1C(=O)NCCN1C(=O)COc1ccc(Br)cc1C (stereo not given)	u	12	1.7	3%	13%	-2	7%
Cc1cc(=O)oc2c3c(cc(OCC(=O)N[C@@H](C)C(=O)O)c12)OC(C)(C)CC3	3.9%	-1	0.9	u	11%	-29	4%
OC[C@H]1OC(O)C[C@@H](O)[C@@H]1O (stereo not given in full)	0.3%	-2	x	x	x	5	-1%
COc1ccc(/C=C/C(=O)c2c(C)cc(C)[nH]c2=O)c2ccccc12	x	-10	14	-56%[inhibitor]	8%	-4	-14%
O=c1[nH]c(Cc2ccccc2)nc2scc(-c3ccccc3)c12	0.7%	4	-1.0	10%	14%	5	2%
Cc1cc(C)n(-c2ccc(C(=O)OCC(=O)Nc3ccc([N+](=O)[O-])cc3)cc2)n1	0.6%	-12	5.4	-5%	8%	-2	9%
CCOC(=O)N1CCN(C(=O)CSC2=NS(=O)(=O)c3ccccc3N2)CC1	-7.5%	0	x	-50%[inhibitor]	x	-2	-3%
COC(=O)c1c(C)[nH]c(C)c1-c1ccc(C)cc1	1.8%	9	5.2	-1%	9%	-11	-5%
O=C(NC1CCCC1)c1cc(-c2cccs2)on1	-7.2%&2.4%	0	4.6	-33%[inhibitor]	-4%	2	-5%
CCCCNC(=O)CC(C(=O)N1CCc2ccccc21)n1ccnc1 (stereo not given)	-2.7%	-5	0.3	18%	5%	-2	0%
CC(Sc1n[nH]c(=O)n1Cc1ccccc1)C(=O)NC1CCCCC1C (stereo not given)	1.8%	u	x	-59%[inhibitor]	x	0	1%
CC(C)Cc1nc(N2CCOCC2)c(C#N)c2c1CCC2	u	-6	2.4	-6%	-7%	-1	u
Cc1c(NC(=O)CN2CCN(c3cccc(Cl)c3)CC2)c(=O)n(-c2ccccc2)n1C	x	2	-4.4	-1%	u	-2	4%
Cc1ccc(CSc2nc3[nH]ncc3c(=O)[nH]2)cc1	1.4%	u	0.1	u	9%	0	2%
Nc1c(Cl)cc(-c2csc(N3CCCC3c3nc4cc(Cl)c(Cl)cc4n3CCOCCO)n2)cc1Cl (stereo not given)	-1.3%	-2	7.1	x	-23%	-1	-4%
COc1ccc(C2C3=C(CCCC3=O)Nc3nc(C(F)(F)F)nn32)cc1OC (stereo not given)	7.2%	-4	-2.1	-13%	-2%	2	0%
CCOC(=O)CNC(c1ccccc1)c1cc(Br)ccc1NC(C)=O (stereo not given)	x	-2	3.3	-7%[15.4 µM]	13%	9	10%
CCCCCCCCSc1nnc(CSc2nc3nc(C)cc(C)n3n2)o1	1.2%	2	0.9	-5%	-17%	5	-6%
Cc1noc(NS(=O)(=O)c2ccc(NC(=O)c3ccc(Br)o3)cc2)c1C	-2.6%	u	-1.8	0%	17%	-2	6%
NC(=O)CSc1nc2c(sc3ccccc32)c(=O)n1CCCN1CCOCC1	-5.3%	-4	2.5	-34%[inhibitor]	11%	0	-5%
Cc1ccc(NC(=O)COC(=O)Cc2ccc(Br)cc2)cc1S(=O)(=O)N1CCOCC1	x	x	x	8%	x	2	4%
COc1ccccc1-c1sc2ccccc2c1C#Cc1ccc(N(C)C)cc1	3.6%	x	x	x	x	24	13%
Cc1csc(Sc2ccc(C(=O)OCC(=O)Nc3ccc(OC(F)(F)F)cc3)cc2[N+](=O)[O-])n1	-1.3%	0	0.7	0%	4%	-4	-2%
Cc1ccc(NC(=O)C2CCCN2C(=O)NC2CCCCC2)cc1C (stereo not given)	-1.1%	3	4.2	-50%[inhibitor]	11%	x	3%

# A few values from the results shown.
# Under gsp ag, COC(=O)c1c(C)[nH]c(C)c1-c1ccc(C)cc1 has -1%
# Under Menin-MLL FL inh, Cc1noc(NS(=O)(=O)c2ccc(NC(=O)c3ccc(Br)o3)cc2)c1C has -1.8
# Under Menin-MLL FL inh, COc1ccc(/C=C/C(=O)c2c(C)cc(C)[nH]c2=O)c2ccccc12 has 14

# Back to the main list, repeating the two entries before the break.
SMILES	ClpP mod	TRPV1 PAM	Menin-MLL FL inh	gsp ag	Sfp inh	CtBP-E1A blk	gsp antag
Cc1csc(Sc2ccc(C(=O)OCC(=O)Nc3ccc(OC(F)(F)F)cc3)cc2[N+](=O)[O-])n1	-1.3%	0	0.7	0%	4%	-4	-2%
Cc1ccc(NC(=O)C2CCCN2C(=O)NC2CCCCC2)cc1C (stereo not given)	-1.1%	3	4.2	-50%[inhibitor]	11%	x	3%
CCCn1c(=N)n(CC(=O)C(C)(C)C)c2ccccc21	-3.1%	0	2.1	-21%	-8%	-9	-14%
CCC(=O)NC(NC(=S)Nc1ccc(S(N)(=O)=O)cc1)C(Cl)(Cl)Cl (stereo not given)	-2.2%	0	4.6	-8%	-8%	-24	11%
O=C1CCCC2=C1C(c1ccc(Cl)cc1)n1c(s/c(=C\c3ccc4ccncc4c3)c1=O)=N2 (stereo not given)	-1.0%	17	13	16%	-17%	4	1%
C[C@H](CO)N1C[C@H](C)[C@@H](CN(C)S(=O)(=O)c2ccccc2C#N)OCc2cn(nn2)CCCC1=O	1.8%	x	x	26%	x	-4	x
FC(F)(F)c1ccc(Cl)c(NC(=S)N/N=C/c2ccccc2C(F)(F)F)c1	-2.3%	2	-0.2	-2%	5%	5	7%
Cc1noc(C)c1COc1ccc(C(=O)NCCc2ccc(F)cc2)cc1	-0.7%	-19	x	11%	x	x	-16%
CC1=C(C(=O)OC(C)C)C(c2ccccc2)NC(=S)N1C (stereo not given)	-0.7%	-2	9.0	-5%	-3%	3	0%
CC(/C=C/c1ccco1)=N\NC(=O)COc1ccc(C)c(C)c1	x	3	9.8	-16%	u	4	-1%
Cc1cc(S(=O)(=O)Nc2ccc(C(=O)N3CCN(C(=O)c4ccco4)CC3)cc2)ccc1F	-0.5%	-4	0.9	0%	2%	-3	-1%
COc1cc(-c2ccc(NC(=O)NC3CC3)c(OC)c2)ccc1NC(=O)NC1CC1	x	22	0.6	x	6%	x	x
COc1ccccc1Oc1nc(-c2ccccc2)cc(C)c1S(C)(=O)=O	25µM*	3	0.3	1%	-9%	0	-6%
Cc1ccc(C(=O)N/C(=C\c2ccc(-c3ccc(Cl)cc3)o2)C(=O)NCCCN(C)C)cc1	x	21	-1.0	-5%	u	1	11%
O=C(NN1CCCCC1)c1cccc2ccccc12	-2.4%	-8	-2.9	6%[15.4 µM]	4%	-3	4%
CCN(CC(=O)Nc1c(F)cccc1F)C(=O)c1ccc(C#N)cc1	-0.2%	-5	0.9	17%	4%	x	11%
O=[N+]([O-])c1cc(-c2csc(NCCc3nc4cc(Cl)c(N5CCCCC5)cc4n3CCCO)n2)ccc1Cl	-1.5%	x	x	6%	x	x	-5%
CC[C@H](C)[C@H](NC(N)=O)C(=O)OCC(=O)NCc1ccc(Cl)cc1	-1.6%	-4	-0.4	-4%	14%	x	11%
CCOc1ccccc1NCc1cc(=O)oc2cc(C)c(O)cc12	1.5%	-19	4.3	u	18%	12	3%
O=C(Nc1ccc(Cl)cc1)Nc1cc(S(=O)(=O)N2CCOCC2)ccc1N1CCCC1	-28%	10	2.4	10%	-18%	-15	-26%
Cc1cc2cc(CN(Cc3cccs3)C(c3nnnn3C(C)(C)C)C(C)C)c3nnnn3c2cc1C (stereo not given)	-16%	-19	1.2	2%	-8%	5	15%
O=S(=O)(Nc1ccc2c(c1)OCCO2)c1cccc2nsnc12	-3.9%	5	3.6	-17%	2%	-14	-7%
COc1ccc([C@H]2CC(=O)C=C(/C=C/Cc3ccccc3)C2)cc1	-3.1%	-8	x	-14%	x	-2	-3%
Cc1nc(CNC(=O)C2CCC(=O)N(Cc3cccc(F)c3)C2)sc1C (stereo not given)	-3.1%	-1	2.5	-21%	-9%	-14	9%
NC(=O)C1CCCN(C(=O)NC2CCCCC2)C1 (stereo not given)	u	-2	0.0	3%	7%	-2	1%
O=C(O)C1Cc2ccccc2CN1C(=O)CCl (stereo not given)	-1.1%	-2	-0.2	13%[15.4 µM]	-1%	2	-15%
C=CCn1c(P(=O)(O)c2ccccc2)nc2ccccc21	-6.5%	-12	1.8	-10%	10%	4	2%
Cc1c(CCC(=O)NCCCN2CCCC2=O)c(=O)oc2c(C)c(O)ccc12	4.7%	0	-2.4	x	21%	-6	10%
Brc1ccc(-c2nnc(-c3cccnc3)o2)cc1	-1.5%	x	x	-1%[15.4 µM]	x	-6	-4%
Cc1onc(-c2c(F)cccc2Cl)c1C(=O)NNC(=O)C1CCN(Cc2ccccc2)CC1	x	21	-14	-1%[15.4 µM]	8%	0	x

# Screens from PubChem.
